Assay outcomes from PubChem BioAssay.
PKD1 inh = blocks activity of human protein kinase D1; Q15139; PKD1 kinase fluorescence polarization assay; inhibition, %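 (about 10 µM by stock and volumes)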; actives 0.056% (n = 200,000);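 active = inhibition of 50% or more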;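 note: controls were vehicle for no effect and a reference inhibitor for full effect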
GALR2 ag = activates the human galanin receptor 2. O43603. GALR2-expressing cells, agonist activation read-out. actives 0.48% (n = 140,000). AID 803. activation, %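 (tested at 5 µM)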;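 active = above mean plus 3 SD of all compounds, about 5% in these data, not always enough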;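 note: 0% = vehicle buffer wells and 100% = reference agonist at full effect; tested in CHO reporter cells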
Target sequence (O43603 whole entry, looked up): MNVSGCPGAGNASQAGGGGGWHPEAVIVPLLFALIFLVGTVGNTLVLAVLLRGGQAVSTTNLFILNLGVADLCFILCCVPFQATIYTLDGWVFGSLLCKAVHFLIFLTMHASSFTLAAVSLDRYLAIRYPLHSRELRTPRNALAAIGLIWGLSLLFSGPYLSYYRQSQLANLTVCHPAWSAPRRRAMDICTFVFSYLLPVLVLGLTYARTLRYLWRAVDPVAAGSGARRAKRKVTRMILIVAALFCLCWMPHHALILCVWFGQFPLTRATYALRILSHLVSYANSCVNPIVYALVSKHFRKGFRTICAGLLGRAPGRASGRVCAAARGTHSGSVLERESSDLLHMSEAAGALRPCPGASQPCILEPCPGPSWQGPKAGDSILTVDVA
RGS16-Gao = modulates binding between human RGS16 and Galphao. actives 0.38% (n = 220,000). bead-based flow cytometry RGS16-Galphao binding, fluorescence; actives lie on both sides. binding response (% of control), % at 10 µM. O15492+P09471;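 active = below 25% or above 175%, edge rows of some plates excepted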;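 note: Galphao activated by GDP with aluminum fluoride before binding; 100% = wells without compound and 0% = beads without RGS; some results beyond the cut were filed as inactive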
Target sequence (O15492 whole entry, looked up): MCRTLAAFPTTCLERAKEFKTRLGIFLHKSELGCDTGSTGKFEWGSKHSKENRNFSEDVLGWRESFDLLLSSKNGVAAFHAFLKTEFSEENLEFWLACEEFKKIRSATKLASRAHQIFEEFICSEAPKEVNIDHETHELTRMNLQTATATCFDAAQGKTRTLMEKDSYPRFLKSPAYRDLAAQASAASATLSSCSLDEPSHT
Target sequence (P09471 whole entry, looked up): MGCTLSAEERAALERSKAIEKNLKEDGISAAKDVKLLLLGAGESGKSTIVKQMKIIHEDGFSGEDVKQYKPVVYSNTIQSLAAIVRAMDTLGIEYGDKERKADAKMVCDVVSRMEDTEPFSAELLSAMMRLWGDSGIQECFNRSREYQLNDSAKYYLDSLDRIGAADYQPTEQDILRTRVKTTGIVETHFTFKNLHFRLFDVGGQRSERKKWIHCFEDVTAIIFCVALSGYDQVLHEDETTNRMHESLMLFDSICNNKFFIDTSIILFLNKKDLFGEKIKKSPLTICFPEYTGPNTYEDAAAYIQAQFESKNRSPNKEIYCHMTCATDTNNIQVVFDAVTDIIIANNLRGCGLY
HSV augment = increases HSV replication in cells; HSV replication augmentation in cells, fold increase; maximum fold increase; actives 0.005% (n = 220,000);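 active = peak rise of 1.5-fold or more in the series; tested in PC3 cells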;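 note: first round at 10 µM; read as green reporter fluorescence; hits show the peak of a series up to 25 µM; 1 = signal of infected wells without compound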
INS promoter inh = TRM-6 insulin promoter activity inhibition. TRM-6 cells (human fetal islet line), insulin promoter-eGFP reporter, imaging; reporter expression induced with tamoxifen. inhibition, % at 2 µM. actives 0.9% (n = 130,000). AID 1273;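 active = inhibition above the mean plus 3 SD, with well images judged a real hit on visual review, cut at about 60% in these data, passing the limit was not always enough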
INS promoter inh cell count = second read-out of INS promoter inh, no call of its own (marks repeat the call); normalized cell count, %; measured here: cell count, toxicity; reference of the scale not given here;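 cells exposed to compound for 48 h; stained nuclei by imaging scaled within each plate; lower means fewer cells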
HSV augment primary fold = further read-out of HSV augment, marked with its call; fold increase; compound at 10 µM; measured here: primary screen fold increase 10 uM; tested in PC3 cells;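 GFP signal in the first replicate; 1 = infected wells without compound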
Numbers without * were called inactive; i = inactive; / = no result given.

SMILES	PKD1 inh	GALR2 ag	RGS16-Gao	HSV augment	HSV augment primary fold	INS promoter inh	INS promoter inh cell count
CC(C)CCNC(=O)c1onc(CSc2ccc(F)c(F)c2)c1C(=O)NCCC(C)C	/	/	100	i	0.69	/	/
CC(C)CCNC(=O)CN(C(=O)CCC(=O)Nc1ccccn1)c1ccc2c(c1)OCO2	-8	-4.7	98	i	0.78	6	129
NC(N)=NC1=NC(=O)/C(=C/c2ccccc2-n2cccn2)S1	9	/	99	i	0.94	-23	87
CN(C)CCOc1ccc2c(c1)Sc1ccccc1CC2=O	59*	-0.7	103	i	0.9	8	99
O=C(NCCN1CCOCC1)c1cn(-c2ccccc2)nc1-c1cccs1	1	-4.7	108	/	/	21	112
C=CCNC(=O)Nc1ccc(Cl)cn1	7	-1.2	55	i	1.1	-25	112
O=C(COc1cccc2c1CCN(Cc1ccc(Cl)cc1)C2=O)N1CCOCC1	-6	/	100	i	1	/	/
COc1cccc(NC(=O)OCCN2CCN(Cc3ccccc3)CCC2=O)c1	-13	-1.9	98	i	0.86	-10	106
Cc1ccc(NC(=O)Cn2nnc(C(=O)NCc3cccs3)c2N)cc1	-12	-2.8	102	i	0.75	-21	149
CC(C)CC(=O)N=C1SC2CS(=O)(=O)CC2N1Cc1ccccc1 (stereo not given)	-5	-1.4	81	i	0.96	-88	110
COCCNC(=O)CCSc1nc(-c2ccc(OC)cc2)cc(C(F)(F)F)n1	-11	-1.1	97	i	1.1	46	164
Cc1ccccc1OCCN1C(=O)c2ccccc2C1=O	4	-1.1	90	/	/	/	/
Cn1c2ccc(CC(=O)O)cc2c2cc(CC(=O)O)ccc21	-44	-0.1	111	i	1	-67	84
Fc1ccc(-c2cc(C(F)(F)F)nc(NCC3CCCO3)n2)cc1 (stereo not given)	0	-0.1	106	i	0.97	56	87
CCCCN(C(=O)c1cc2ccccc2o1)c1c(N)n(CCC)c(=O)[nH]c1=O	4	-1.1	64	i	1.1	/	/
CC1(C)CC(=O)C(N=Nc2cc3c(cc2[N+](=O)[O-])OCCO3)=C(O)C1	-5	/	108	i	0.91	-8	135
CC(=O)Nc1ccc(Oc2ccc3nc(C)[nH]c3c2)cc1	-2	0.0	96	i	0.99	3	100
CC1CCCCC1NC(=O)Cn1nc(-c2ccccc2)ccc1=O (stereo not given)	2	-1.9	102	i	0.78	-41	106
Cc1ccc(C)c(S(=O)(=O)N2C(=S)NC(=O)C2C(C)C)c1 (stereo not given)	0	-1.9	99	i	0.89	80*	69*
Cc1[nH]c2ccccc2c1C(=O)CN1CCN(C/C=C/c2ccccc2)CC1	-1	-0.2	90	i	0.91	44	66
CCn1cc(C(=O)O)c(=O)c2cc(F)c(N3CCN(S(=O)(=O)c4ccc(Br)cc4)CC3)cc21	-9	-0.2	100	i	1.1	47	82
Nc1ccc2oc(-c3cc(Br)ccc3Cl)nc2c1	3	-0.2	98	i	0.95	-146	47
O=C(c1nc2ncccn2n1)N1CCN(c2ccccc2)CC1	-1	0.0	99	i	0.96	-23	97
CCC1CCC(C(=O)NC(C(=O)Nc2ccc3c(c2)OCCO3)C(C)C)CC1 (stereo not given)	1	-2.0	93	i	0.92	-14	122
COC(=O)c1cc(NS(=O)(=O)c2cccc(Cl)c2)ccc1N1CCOCC1	/	/	98	i	0.98	/	/
C=CCNC(=O)Nc1ccc(Br)cc1Cl	-2	/	103	i	0.76	/	/
Cc1cc([N+](=O)[O-])nn1CCCC(=O)NCc1ccccc1	-7	0.0	99	i	1	4	128
O=C(NC(n1ccc(=O)[nH]c1=O)C(Cl)(Cl)Cl)C12CC3CC(CC(C3)C1)C2 (stereo not given)	/	/	101	i	1.1	/	/
CC(C)C(=O)Nc1ccc([N+](=O)[O-])cc1Br	-10	-1.2	89	i	0.96	-88	187
O=C(O)C/C(=C\c1ccc(N2CCOCC2)c([N+](=O)[O-])c1)c1nc2ccccc2s1	/	/	102	i	0.88	/	/
COc1ccc(NC(=O)c2ccccc2O)c(OC)c1	-1	-3.5	219	i	1	37	114
O=[N+]([O-])c1nn(-c2ccc3c(c2)OCCO3)n(O)c1=NC1CCCC1	-7	-3.6	102	i	1	/	/
Cc1ccc(C(OCC(C)(C)C[N+](C)(C)C)c2ccccc2)cc1 (stereo not given)	-9	/	97	i	0.92	-31	122
CC1=CCC2C(=O)N(Cc3ccccc3)C(=O)C2C1 (stereo not given)	3	-2.5	106	i	0.88	3	85
COc1ccc(-c2nnc(NC(=O)C(C)C)s2)c(OC)c1	7	-2.0	119	/	/	/	/
COc1ccc(C)cc1NC(=O)c1nnn(Cc2cc(C)ccc2C)c1N	-7	-1.2	85	i	0.82	/	/
Cc1nc(N=Nc2ccc(O)cc2)n[nH]1	/	/	90	i	0.86	/	/
COc1ccc(-c2nnc(SCC(=O)Nc3cc(C)on3)n2C)cc1OC	3	-1.3	81	i	0.94	0	58
Cn1c(-c2ccc(C(=O)c3ccccc3)s2)nc2ccccc21	-2	-0.3	/	i	0.97	25	110
O=C(CCCN1C(=O)/C(=C/c2cccs2)SC1=S)Nc1ccc(O)c(C(=O)O)c1	7	/	102	i	1.1	/	/
CN(C)C(=O)CSc1nnc([C@H](Cc2c[nH]c3ccccc23)NC(=O)OC(C)(C)C)o1	/	/	102	i	0.88	/	/
Fc1ccccc1Cn1cnc(NC(=S)NCCc2ccccc2)n1	-4	/	104	i	0.95	/	/
CC(Oc1ccc2c(=O)c(-c3ccc(Cl)cc3)c(C(F)(F)F)oc2c1)C(=O)O (stereo not given)	/	/	97	i	0.92	/	/
Cc1ccnc(NS(=O)(=O)c2ccc(N=CC3=C(O)CC(C)(C)CC3=O)cc2)n1	-8	-2.5	106	i	0.88	-42	88
Cc1cccc(C)c1NC(=O)c1ccc(CN2CCc3ccccc3C2)cc1	5	-2.8	101	/	/	43	71
O=C(O)Cc1cn(Cc2ccc(F)cc2)c2ccccc12	-3	/	102	/	/	29	75
CC1CCN(c2ccc(C(=O)NCc3ccc4c(c3)OCO4)cc2[N+](=O)[O-])CC1	1	-0.4	94	i	0.94	/	/
CC(C)(C)NS(=O)(=O)c1cc(C(=O)O)ccc1Cl	2	/	95	i	1.1	7	145
O=C1CC(c2ccc(S(=O)(=O)NC3CC3)cc2)CN1 (stereo not given)	-6	-1.9	100	i	0.91	/	/
CCN1CCN(Cc2nc3c(c(=O)n(C)c(=O)n3C)n2CCc2ccccc2)CC1	-7	-2.1	110	i	0.92	2	99
CCOC(=O)c1c(C)nc2sc3c(=O)n(-c4ccc(OC)cc4)nnc3c2c1-c1ccc(OC)cc1	7	-0.9	88	i	0.86	4	106
O=C(NCCCNC(=O)c1ccco1)c1ccco1	-3	-1.8	100	i	1	/	/
O=C(NNC(=S)NC(=O)c1cn(-c2ccccc2)nc1-c1ccccc1)c1ccncc1	3	/	91	i	0.91	/	/
Cc1nnc(SCC(=O)Nc2ncc3c(n2)CC(c2ccccc2)CC3=O)s1 (stereo not given)	-1	0.1	100	i	0.95	7	114
O=C(c1ccco1)N1CCN(C(=O)c2cnn3c2NC(c2cccs2)CC3C(F)(F)F)CC1 (stereo not given)	-1	-2.6	94	i	0.96	-18	111
CCCCNC(=O)c1onc(CSc2cccc(C)c2)c1C(=O)O	1	-3.2	110	i	0.87	/	/
CCOC(=O)N1CCC(NC(=O)CSc2cc(=O)n(CC)c3ccccc23)CC1	1	-0.6	100	i	1.1	/	/
COc1cccc(C(=O)CSc2nnc(CNS(C)(=O)=O)n2-c2ccc(C)cc2)c1	-1	0.5	111	i	0.96	16	58
O=C(CSCc1ccc(Cl)cc1)N/N=C/c1ccccc1	-1	-1.5	98	i	1.1	-6	160
COC(=O)c1ccc(CNC(=O)COC(=O)CCC2CCCC2)cc1	-13	-0.1	101	i	0.97	/	/

(further entries)
SMILES	PKD1 inh	GALR2 ag	RGS16-Gao	HSV augment	HSV augment primary fold	INS promoter inh	INS promoter inh cell count
CCN(CC)CCn1c(=N)n(CC(O)c2ccc(OC)c(OC)c2)c2ccccc21 (stereo not given)	-2	/	101	i	0.89	-47	90
C=CCn1c2ccccc2c2nnc(SCc3[nH]c(=O)[nH]c3C(=O)CCCCC(=O)OCC)nc21	-6	0.7	60	i	1	/	/
O=C1c2ccccc2C(=O)N1SC1CCCCC1	9	-0.8	55	i	0.9	/	/
CCSc1ccc(-c2nn(-c3ccccc3)cc2/C=C(/C#N)C(=O)NCCCOC)cc1	-14	5.9*	206	i	0.91	43	59
CC(C)N1CCC2(CC1)N=C(c1ccc3c(c1)OCO3)CC(c1cc(Cl)ccc1O)N2 (stereo not given)	-11	0.3	101	i	0.65	32	143
CCCCN(C(=O)CCC(=O)Nc1cc(C)on1)C(C(=O)NC(C)(C)CC)c1cccc(OC)c1OC (stereo not given)	/	/	106	i	0.96	/	/
COc1ccccc1C(c1nnnn1CCc1ccccc1)N1CCN(c2ccccc2)CC1 (stereo not given)	-9	-2.9	104	i	1	/	/
O=C(Cn1c(NCCCO)nc2ccccc21)c1cccc(Br)c1	19	-1.4	99	i	0.93	/	/
Cn1c(CSCCOc2ccccc2)n[nH]c1=S	/	/	101	i	1	/	/
O=C(Nc1nnc(-c2cccnc2)s1)c1cccs1	/	/	98	i	1	/	/
O=C(NC1CC1)C1CCN(C2CCN(C(=O)CCOc3ccccc3)CC2)CC1	-1	/	101	i	0.94	/	/
CCN1CCN(CC(O)COCC2COc3ccccc3O2)CC1 (stereo not given)	-2	/	100	i	0.95	/	/
CCc1ccc(OCCNC(=O)c2ccccc2SCc2ccc(F)cc2)cc1	-16	-2.5	82	/	/	-50	105
CC(=O)CC(=O)Nc1ccccc1NC(C)=O	1	-2.9	100	i	0.77	-17	75
Cc1nn2c3ccccc3nc2n(C)c1=O	-3	-0.9	96	i	0.91	36	131
C[C@@H]1NC(=O)c2cc([N+](=O)[O-])cc(I)c2OCC[C@@H](C(N)=O)NC(=O)[C@H](CCC(=O)O)NC1=O	-10	-1.4	103	i	0.95	14	129
CN(C)CCNC(=O)c1onc(CSc2ccc(F)cc2)c1C(=O)NCCN(C)C	/	/	92	i	0.76	/	/
NS(=O)(=O)c1ccc(CCNc2cc(=O)n(Cc3ccc(F)cc3)c(=O)[nH]2)cc1	0	-0.6	101	i	0.93	/	/
CC(/C=N\NC(=O)c1cc(C)oc1C)=C\c1ccccc1	-9	-2.3	93	i	0.92	-32	100
COc1cccc(-c2nc(CSCC(=O)N3CCc4ccccc43)c(C)o2)c1	-1	-0.9	54	i	0.92	9	80
O=c1[nH][nH]c(=S)n1-c1ccccc1C(F)(F)F	/	/	93	i	0.92	/	/
Cc1ccc(NC(=O)COC(=O)COc2ccc(Cl)cc2C)c([N+](=O)[O-])c1	-14	-1.3	107	i	0.9	29	97
CCC(C)NC(=O)C1CCN(c2nc(C)cc(C)n2)CC1 (stereo not given)	3	-1.0	101	i	0.94	-43	49
COc1ccccc1CO/N=C/NC(=O)c1c(OC)ccnc1Oc1ccc(F)cc1	0	-2.2	99	i	1	-12	132
COc1ccc(C(=O)N2N=C(c3cccc(OC)c3)CC2(O)C(F)(F)F)cc1 (stereo not given)	-3	0.2	109	i	0.96	-7	93
CC(SC1=NCCS1)C(=O)Nc1nnc(-c2ccc(F)cc2)s1 (stereo not given)	-3	-2.8	106	i	0.86	/	/
Cc1cc(C)n2nc(SCC(=O)N(C)c3ccccc3)nc2n1	-5	-3.7	84	i	1	-192	93
COc1ccc(-n2c3c(c(=O)[nH]c2=O)C(NC(C)=O)(C(F)(F)F)C(=O)N3)cc1 (stereo not given)	3	/	76	i	0.97	17	93

Random draw from the library; overall some 1.3% were active at least once.
